H5N1 CPE: MDCK cell protection from H5N1 avian flu | inhibition, % at 50 µM | 96,000 tested, 0.07% active | AID 740 | cytopathic effect, luminescence, 72 h; active compounds read high; no value below 0 was filed and about half of the inactive calls have no number; reference of the scale not given here; in the data active means inhibition above about 25%
Active calls of the source: *; i = inactive.

SMILES	H5N1 CPE
CC1(C)CC(=O)C2=C(C1)OC(N)=C(C#N)C2CCc1ccccc1 (configuration not stated)	i
O=C(N/N=C\c1ccc(Sc2ccccn2)o1)c1cccc(F)c1	i
COc1ccc(CCNC(=O)NC2CCCCC2)cc1OC	i
C=CCOc1nc(N2CCCC2)nc(N2CCCC2)n1	0.7
CN1/C(=C\C(=O)c2oc3ccccc3c2N)C(C)(C)c2ccccc21	i
COc1cccc(C(=O)CSc2nnc(-c3cccs3)o2)c1	i
COc1ccccc1C(=O)Oc1ccc(C(C)C)cc1	0.1
CCOC(=O)C1=C(Nc2cccc(Cl)c2)OCC1=O	0.4
CCCc1[nH]nc2c1C(Cc1ccccc1)C(C#N)=C(N)O2 (configuration not stated)	i
CC(=O)c1c(C)[nH]c(C(=O)OCC(=O)NCCc2ccc(F)cc2)c1C	1.7
CC(C)C(C(=O)NC1CCCCC1)N(CC1CCCO1)C(=O)CNS(=O)(=O)c1ccc(F)cc1 (configuration not stated)	0.4
CC(C)CN1C(=O)c2ccc(C(=O)Nc3ccncc3)cc2C1=O	1.1
CCOc1cc(C(=O)Nc2ccc(N3CCN(S(C)(=O)=O)CC3)cc2)cc(OCC)c1OCC	i
Cc1ccccc1OCC(=O)N(Cc1cccs1)C1CCS(=O)(=O)C1 (configuration not stated)	0.3
CC(C)C(=O)N(Cc1cc(=O)[nH]c2ccccc12)c1ccccc1	5.7
Cc1cccc2c1OCC/C2=N\NC(=O)COc1ccccc1	i
c1coc(-c2nc(-c3ccco3)c(-c3ccco3)nc2-c2ccco2)c1	i
CCCCCn1c(Sc2ccccc2)nc2c1c(=O)[nH]c(=O)n2C	1.4
Cc1ccc(CNCC(O)(c2ccc(F)cc2)c2ccc(F)cc2)cc1	0.6
COc1ccc(-c2nc(CSCC(=O)NC3CCCc4ccccc43)c(C)o2)cc1 (configuration not stated)	0.1
CC1(C)Cc2c(sc3c2C2=NCCN2C=N3)CS1	i
CCN(CC)c1ccc(NC(=O)CSc2nnc3nc(C)cc(C)n23)cc1	i
N#CC1=C(SCC(=O)Nc2ccccc2)NC(=O)CC1c1ccc(O)cc1 (configuration not stated)	i
COc1ccc(C(=O)c2coc3ccc(O)c(CN4CCCC4)c23)cc1	i
CCOC(=O)c1c(C)[nH]c(C(=O)CSc2nc3ccccc3o2)c1C	i

(next part)
SMILES	H5N1 CPE
Cc1cc(C)c(C)c(S(=O)(=O)NCc2ccco2)c1C	7.0
O=C(NCc1cccnc1)c1ccc(COc2ccc3c(c2)CCC3)o1	i
Cc1ccc(C)c(N2CCN(C(=O)Cn3c(=O)[nH]c4ccsc4c3=O)CC2)c1	i
COc1ccc(/C=N/N2CCN(C)CC2)cc1O	i
O=C(Nc1cccc(F)c1)C1CC(=O)N(c2ccc(Cl)cc2)C1 (configuration not stated)	i
CCN1CCN(S(=O)(=O)c2cc(OC)c(Cl)cc2OC)CC1	i
CC/C(=C\C(=O)c1ccncc1)Nc1ccc(Br)cc1	i
CC(=O)NC1(NC(C)=O)CCN(C)C(c2ccccc2)C1C (configuration not stated)	1.0
O=C(NCc1ccccc1)C(Cc1ccccc1)NS(=O)(=O)c1cccc2nsnc12 (configuration not stated)	0.3
CCN(CC)S(=O)(=O)c1ccc2c(c1)c(=O)c(C(=O)N1CCc3ccccc3C1)cn2C	1.2
Cc1cc(NC(=O)c2cccc(S(=O)(=O)N3CCCCCC3)c2)no1	0.5
CC(=O)c1c(C)[nH]c(C(=O)N2CCc3ccccc3C2)c1C	i
O=C(Nc1ccc2c(c1)oc1ccccc12)c1ccc2c(c1)OCO2	0.3
O=C1CC(C(=O)N2CCC3(CC2)OCCO3)CN1CCc1ccccc1 (configuration not stated)	0.3
CCSc1ccccc1C(=O)NCc1ccco1	2.4
Cc1c(Cl)c(C(=O)N2CCCc3ccccc32)nn1C	i
COc1ccc(C(=O)CSc2nnc(CNC(=O)c3ccc(OC)cc3)n2C)cc1	0.4
COc1cc(-c2nnc3sc(-c4cccs4)nn23)cc(OC)c1OC	4.0
O=C(NC(NC(=O)c1ccccc1)c1ccccc1)c1ccccc1	i
CC1CCCC(C)N1C(=O)CSc1nc2ccccc2s1 (configuration not stated)	3.7
CC(C)CCOc1cccc(OCC(=O)NC2CCS(=O)(=O)C2)c1 (configuration not stated)	i
CC(=O)NC(=O)COC(=O)/C=C/c1c(C)nn(Cc2c(Cl)cccc2Cl)c1Cl	i
N#CC(c1ccc(Cl)nn1)c1ccc(Cl)cc1Cl (configuration not stated)	i
CC(C)Cc1cc(C(=O)Nc2cc(Br)ccc2O)no1	0.6
O=C(c1ccccc1)N(Cc1ccco1)C1CCS(=O)(=O)C1 (configuration not stated)	0.5

More results follow:
SMILES	H5N1 CPE
Cc1cc(C)cc(NS(=O)(=O)c2ccc(NC(=S)NC(=O)c3ccc(Br)o3)cc2)c1	0.4
CCc1ccc(OCC(=O)N/N=C2\CC(=O)c3ccccc32)cc1	i
COc1ccc(NC(=O)C(C)N(c2ccc(C)cc2)S(C)(=O)=O)c(OC)c1 (configuration not stated)	0.1
CCOc1ccccc1CNC(=O)c1cc2occc2n1C	0.1
CC1CCC(NC(=O)Nc2cccs2)CC1 (configuration not stated)	0.8
Cc1cc(NC(=O)COc2ccccc2)n(-c2ccccc2)n1	0.7
Cc1nc2ccccc2c(=O)n1NCc1cc(Br)cs1	2.8
COc1ccc(C)cc1-n1nnnc1SCC(=O)Nc1cc(C)on1	1.3
Cc1c(C(=O)NCCSCc2ccc(Cl)cc2Cl)cccc1[N+](=O)[O-]	i
CN(C)S(=O)(=O)c1cccc(C(=O)Nc2ccc(Cl)cn2)c1	i
CO/N=C(/CS(=O)(=O)Cc1ccccc1Cl)c1ccc(Cl)cc1Cl	i
CCCC(=O)NCc1ccc2c(c1)cc(C)n2C	i
CCN(Cc1ccccc1)S(=O)(=O)c1ccc2oc(C(=O)O)c(C)c2c1	1.8
COc1ccc(-c2nnc3sc(CCN4C(=O)c5ccccc5C4=O)nn23)cc1	1.5
Cc1ccc(S(=O)(=O)Cc2ccc(C(=O)N3CCc4ccccc4C3)o2)cc1	1.9
COc1ccc(-n2cnc3cc(NC(=O)c4ccco4)ccc32)cc1	1.0
C/C(CC(O)(/C=N/O)c1ccccc1)=N\O (configuration not stated)	i
COc1cc(C)c(N(C(C)=O)c2ccccc2)c(C)c1	1.5
CCOC(=O)C(C#N)c1ccccn1 (configuration not stated)	1.5
Cc1nc(-c2ccccc2)sc1-c1n[nH]c(=S)n1C	1.5
Clc1ccc(N2CCN(Cc3ccccc3Cl)CC2)cc1	1.8
O=C(Nc1nnc(C2CC2)o1)c1ccc(S(=O)(=O)N2CCCc3ccccc32)cc1	2.6
Nc1nc(-c2ccc(Cl)cc2)cc(C(F)(F)F)n1	0.0
COc1ccc(CN=C(C)c2c(C(F)(F)F)[nH]n(-c3nc4ccccc4s3)c2=O)cc1	i
CCCCOC(=O)c1ccc(NC(=O)CSCc2n[nH]c(=O)[nH]2)cc1	1.6

Going on with the list:
SMILES	H5N1 CPE
Cc1nn(CC(=O)NCCc2ccccc2)c(=O)c2ccccc12	i
CCCCC(=O)NCCc1ccc(S(N)(=O)=O)cc1	0.3
COCCCn1c(CCC(=O)O)ccc1-c1ccc(F)cc1	1.7
COc1cc(OC)cc(C(=O)NC2=NCCS2)c1	i
Cc1cc(C=C2C(=O)N(C)C(=S)N(C)C2=O)c(C)n1C1CCCC1	0.1
CC(=O)N1CCN(c2ccccc2NC(=O)c2cc(Br)ccc2Cl)CC1	1.1
CCOC(=O)Cc1csc(SCC(=O)Nc2cc(Cl)ccc2Oc2ccccc2)n1	0.6
COc1ccc(NC(=O)CSc2nc3ncccc3[nH]2)cc1OC	0.5
CSc1oc(-c2ccco2)nc1S(=O)(=O)c1ccc(F)cc1	5.5
COC(=O)c1nc(NC(=O)c2ccccc2Cl)n[nH]1	i
CN(C)c1nc(-c2ccccc2)cc(C(F)(F)F)c1C#N	i
COCCCNC(c1ccccc1)c1ccncc1 (configuration not stated)	0.5
O=C(CSc1nnc(CNc2ccc(Cl)cc2)n1Cc1ccccc1)NCc1ccco1	2.7
CCCCOc1ccc(Cl)cc1CSc1nncn1N	i
CCCCCN=C(C)c1c(O)c2ccccc2oc1=O	i
Cc1cc(C(=O)CN2C(=O)c3ccccc3C2=O)c(C)n1C1CC1	0.1
CCOC(=O)c1ncn2c1C(=O)OC2(C)C	i
Cc1nc2c(-c3ccc(F)cc3)c(C)nn2c(C)c1CCC(=O)N1CCOCC1	i
CSc1ccccc1NC(=O)CSCc1ccc(Br)cc1	i
Cc1[nH][nH]c(=O)c1C(c1c(C)[nH][nH]c1=O)c1cn(Cc2cccc3ccccc23)c2ccccc12	i
COC(=O)c1sccc1NC(=O)c1cc(-c2cccc(C)c2)nc2ccccc12	2.8
CCCCOc1ccc(/C=N/NC(=O)c2csc(C)c2C)cc1	i
CCOC(=O)c1sc(NC(=O)CSc2nc3c(cc2C#N)CCCCC3)c(C#N)c1C	i
CCOc1ccc(OCC)c(NS(=O)(=O)c2cccc3nsnc23)c1	i
O=C(CC1Nc2ccccc2NC1=O)Nc1ccccc1 (configuration not stated)	i

Later entries
SMILES	H5N1 CPE
c1ccc(Cc2nn3c(C4COc5ccccc5O4)nnc3s2)cc1 (configuration not stated)	i
c1ccc(NC(=NCc2ccco2)c2ccccc2)cc1	1.1
c1ccc(-c2ncc(CSc3nncn3-c3ccccc3)s2)cc1	1.7
Cc1ccc(C)c(CSc2nnc([C@@H](N)C(C)C)o2)c1	i
CCC(=O)c1ccc(OCCn2cncn2)cc1	0.5
COC(=O)c1c(NC(=O)c2ccc(Br)o2)sc(C)c1C	i
COc1ccc(CNCCNC(=O)c2ccco2)c(OC)c1OC	i
CC(C)CC(=O)Nc1ccc2oc(-c3cccnc3)nc2c1	i
Cc1c(NC(=O)c2ccccc2NS(=O)(=O)c2ccc(F)cc2)c(=O)n(-c2ccccc2)n1C	0.1
NS(=O)(=O)c1cccnc1Nc1cccc(Cl)c1	i
COc1ccc2cc(C(c3nnnn3CCc3ccccc3)N3CCC(O)CC3)c(=O)[nH]c2c1 (configuration not stated)	0.2
Cc1cccc(-n2nnc(C(=O)NCc3ccco3)c2N)c1	0.5
CCC(CC)C(=O)N1CCCC(c2nc(-c3cccs3)no2)C1 (configuration not stated)	2.4
O=C(CS(=O)(=O)c1cn(Cc2cccc(F)c2)c2ccccc12)N1CCOCC1	1.3
CCN(C(=O)CN1CCN(c2ccccc2O)CC1)c1c(N)n(Cc2ccccc2)c(=O)[nH]c1=O	0.9
COc1ccccc1C1C(C(N)=O)=C(C)Nc2ncnn21 (configuration not stated)	i
Cc1cccc2cc(C(c3nnnn3Cc3ccc4c(c3)OCO4)N3CCCC3)c(=O)[nH]c12 (configuration not stated)	i
Cc1sccc1C1C(C#N)=C(N)SC(N)=C1C#N	0.2
O=C(CSc1nc2ccccc2c(=O)[nH]1)c1cccs1	i
COc1ccc(-c2cc(C(F)(F)F)nc(SCCC(=O)N3CCN4CCCC4C3)n2)cc1 (configuration not stated)	i
CCOC(=O)c1nnn(-c2nc(OC)nc(N3CCCCC3)n2)c1-c1ccccc1	1.6
COc1ccc(CCNC(=O)c2cnn3ccccc23)c(OC)c1OC	0.6
c1ccc(-c2cc(-c3nnc4n3N=C(c3ccc5ccccc5c3)CS4)[nH]n2)cc1	i
Cc1ccc(S(=O)(=O)N2CCN(c3ncnc4c3cnn4-c3ccccc3)CC2)cc1	0.1
O=C(O)Cn1cc(C(=O)c2ccco2)c2ccccc21	0.3

Entries above with a cyano group:
SMILES	H5N1 CPE
CC1(C)CC(=O)C2=C(C1)OC(N)=C(C#N)C2CCc1ccccc1 (configuration not stated)	i
CCCc1[nH]nc2c1C(Cc1ccccc1)C(C#N)=C(N)O2 (configuration not stated)	i
N#CC1=C(SCC(=O)Nc2ccccc2)NC(=O)CC1c1ccc(O)cc1 (configuration not stated)	i
N#CC(c1ccc(Cl)nn1)c1ccc(Cl)cc1Cl (configuration not stated)	i
CCOC(=O)C(C#N)c1ccccn1 (configuration not stated)	1.5
CN(C)c1nc(-c2ccccc2)cc(C(F)(F)F)c1C#N	i
CCOC(=O)c1sc(NC(=O)CSc2nc3c(cc2C#N)CCCCC3)c(C#N)c1C	i
Cc1sccc1C1C(C#N)=C(N)SC(N)=C1C#N	0.2

4 entries out of the list, ordered by length of the SMILES, lowest first.
SMILES	H5N1 CPE
CCC(=O)c1ccc(OCCn2cncn2)cc1	0.5
c1ccc(NC(=NCc2ccco2)c2ccccc2)cc1	1.1
Cc1cccc(-n2nnc(C(=O)NCc3ccco3)c2N)c1	0.5
c1ccc(Cc2nn3c(C4COc5ccccc5O4)nnc3s2)cc1 (configuration not stated)	i

Going on with the list:
SMILES	H5N1 CPE
CCn1c(CNc2ccccc2Cl)nnc1SCCN1CCCCC1	i
CC(=O)c1cccc(NC(=O)CN(C2CCCCC2)S(C)(=O)=O)c1	1.3
Cc1cc(C)nc(SCc2nnc(SCC(=O)Nc3ccc(Cl)c(C(F)(F)F)c3)o2)n1	0.9
CC(C)c1nnc(NC(=O)CSc2ccccc2)s1	0.3
O=C(Nc1ccc(Cl)cc1)N(CCCN1CCOCC1)Cc1cccs1	i
CCCCC(=O)Nc1ccc2c(c1)nc1n2CCOC1	0.3
O=C(O)C1CCCN1c1ncccn1 (configuration not stated)	i
NS(=O)(=O)c1ccc(NS(=O)(=O)/C=C/c2ccccc2)cc1	0.6
COc1cccc(CNCCSc2nnnn2C)c1OC	i
CCOC(=O)c1cnn(-c2ccccc2)c1-n1cccc1	i
COc1ccc(N(CC(=O)Nc2ccc(S(=O)(=O)N3CCOCC3)cc2)S(=O)(=O)c2ccccc2)cc1	i
Cc1c(NC(=O)C2Cc3ccccc3CN2C(=O)c2ccco2)c(=O)n(-c2ccccc2)n1C (configuration not stated)	2.6
Cc1ccc(O)c(CNc2ccccn2)c1	0.8
CCC1S/C(=N\S(=O)(=O)c2cccs2)N(C2CCCCC2)C1=O (configuration not stated)	i
CN(Cc1ccccc1)C(=O)CCCn1c(=O)[nH]c2cc(Cl)ccc2c1=O	0.1

No new results follow: two of the compounds above.
SMILES	H5N1 CPE
CC(=O)c1cccc(NC(=O)CN(C2CCCCC2)S(C)(=O)=O)c1	1.3
Cc1cc(C)nc(SCc2nnc(SCC(=O)Nc3ccc(Cl)c(C(F)(F)F)c3)o2)n1	0.9

Only part of the results is shown (hit frequency here may not be typical).
